A488 autofl – compound autofluorescence in A488 spectral region; compound autofluorescence, A488 spectral region, dye equivalency; hits give high values; max dye equivalency, M; actives 0.1% (n = 59,000); active = above 10 nM dye equivalent; inconclusive = 1 to 10 nM; inactive = 1 nM or less; about half of its hits are not listed in these tables;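 further: highest value over a series up to 38 µM; compound alone in buffer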
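Spectroscopic profiling in the A488 region: compounds in pH 8.0 Tris (100 mM), 15 min RT, CCD imaging with 480 nm excitation and 540 nm emission; responses normalized against A488 dye standards.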
AID923 – qHTS Assay for Allosteric/Competitive Inhibitors of Caspase-1: Spectroscopic Profiling in AFC Spectral Region | compound fluorescence, AFC spectral region (405/520 nm); almost no hit is shown here | Potency, µM (top dose mostly 57.5 µM), for inactives: at the highest dose fluorescence increase, hits mostly activators | actives 1.1% (n = 75,000); active means well fitted activation curve with a large enough effect; inconclusive means small, poorly fitted or top-dose-only effect;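 further: potency means the concentration at half of the fitted maximal effect; 0% is about no effect; scaled to a free AFC standard on each plate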
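Compound autofluorescence profiled at 405 nm ex/520 nm em during kinetic caspase 1 run (50 nM enzyme, 5 uM Ac-WEHD-AFC, HEPES pH 7.5, 10 mM DTT). Titration up to 57 uM; baseline from regression intercept, normalized to AFC standard curve.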
Resorufin autofl – compounds fluorescent in resorufin spectral region; Compound fluorescence, resorufin region 547/598 nm, buffer; hits give high values; max dye-equivalent concentration, M; actives 0.04% (n = 59,000); active = above 10 nM dye equivalent; inconclusive = 1 to 10 nM; inactive = 1 nM or less; a few of its hits are not listed in these tables; further: highest value over a series up to 38 µM
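Intrinsic fluorescence profiled in the resorufin window (ex 547 nm, em 598 nm) after 15 min at room temperature in pH 8.0 Tris buffer (100 mM); responses normalized against a six-point resorufin standard series as dye-equivalent concentration.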
A647 fluor – compound fluoresces in the A647 spectral region; Compound fluorescence, A647 channel (570/671 nm), Tris buffer; max dye-equivalent concentration, M; 59,000 tested, under 10 active; active means above 1 µM dye equivalent; inconclusive means 0.1 to 1 µM; inactive means 0.1 µM or less;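 further: values scaled relative to a standard on each plate; highest value over a series up to 38 µM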
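Fluorescence read (570 nm ex, 671 nm em) after 15 min RT incubation of compounds in 100 mM Tris buffer, pH 8.0; values expressed as dye-equivalent concentration against a six-point A647 standard series on each plate.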
TSHR ag – activates the human thyroid stimulating hormone receptor; HEK293-CNG-TSHR cells (CNG channel as cAMP sensor), membrane potential dye, cAMP; actives 0.48% (n = 73,000); AID 926; Potency, µM (titrated, usually from 57.1 µM), without a hit: at the highest dose activation, most hits filed as activators; active = well fitted activation curve of enough size with the parental cells flat; inconclusive = any curve in the parental cells; inactive = parental cells flat and receptor cells flat or falling; further: potency means the concentration at half of the fitted maximal effect; % of control where 0% means no effect; weak receptor curves with flat parental cells got no call and are not listed
Target sequence (P16473 whole entry, looked up): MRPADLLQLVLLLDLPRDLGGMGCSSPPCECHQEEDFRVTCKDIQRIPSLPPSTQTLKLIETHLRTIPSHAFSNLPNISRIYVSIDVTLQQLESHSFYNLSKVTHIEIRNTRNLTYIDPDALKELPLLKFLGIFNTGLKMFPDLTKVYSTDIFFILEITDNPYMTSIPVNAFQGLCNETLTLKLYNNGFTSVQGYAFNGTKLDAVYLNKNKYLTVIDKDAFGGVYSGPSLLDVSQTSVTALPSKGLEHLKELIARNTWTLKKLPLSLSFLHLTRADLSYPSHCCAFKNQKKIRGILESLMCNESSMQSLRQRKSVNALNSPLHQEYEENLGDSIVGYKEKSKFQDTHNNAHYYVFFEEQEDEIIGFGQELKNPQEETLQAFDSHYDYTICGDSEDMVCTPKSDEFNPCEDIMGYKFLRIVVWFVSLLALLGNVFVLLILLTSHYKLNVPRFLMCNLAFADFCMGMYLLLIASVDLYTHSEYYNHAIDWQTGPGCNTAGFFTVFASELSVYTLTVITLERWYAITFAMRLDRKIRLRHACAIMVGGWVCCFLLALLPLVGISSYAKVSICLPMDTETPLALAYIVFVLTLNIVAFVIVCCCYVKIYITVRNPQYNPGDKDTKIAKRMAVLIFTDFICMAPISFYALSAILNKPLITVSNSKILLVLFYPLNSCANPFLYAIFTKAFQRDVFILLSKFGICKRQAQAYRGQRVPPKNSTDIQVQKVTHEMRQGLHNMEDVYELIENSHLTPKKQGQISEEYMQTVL
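HEK 293 cells stably expressing TSHR and a modified CNG channel, with CNG-only parental cells as counterscreen, were preloaded 60 min at room temperature with membrane potential dye containing 100 uM RO 20-1724. Compound exposure was 30 min, and depolarization was read as fluorescence at 590 nm.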
* = called active by the depositor; i = inactive; ? = inconclusive; . = no result given; & = joins results of further samples; [ ] = dose if it differs, or a comment. An excerpt; count on the stated rates, not on these rows.

SMILES	A488 autofl	AID923	Resorufin autofl	A647 fluor	TSHR ag
CC(=O)OCC1OC(C#CC2=CCCCC2)C=CC1OC(C)=O (stereo not drawn)	.	0.8%[11.5 µM]	.	.	0%[11.4 µM]
c1ccc(-n2cnnc2SCc2cn3ccccc3n2)cc1	i	4.7%	i	1.5e-08	2%
O=C(CSc1nnc(Cc2cc(=O)[nH]c(=O)[nH]2)n1-c1ccc(F)cc1)NC1CCCC1	.	-1.6%	.	.	5%
O=S(=O)(Cc1ccc(Cl)cc1)NCC1CCCO1 (stereo not drawn)	i	-0.8%	i	3.1e-09	2%
N#Cc1cc2c(nc1SCC(=O)N1CCCCC1)CCCCC2	i	1.4%	i	1e-09	17%
CC(C)C(c1nnnn1C1CCCC1)N1CCc2ccccc21 (stereo not drawn)	i	0.0%	i	4.3e-09	?
CCOC(=O)N1CCC(Nc2c(-c3ccc(C)c(C)c3)c(=O)c2=O)CC1	i	0.6%	i	3.7e-08	14%
N#Cc1nc(-c2ccco2)oc1NCc1ccc(F)cc1	i	1.4%	i	1e-09	-4%
CCn1c(=O)c2ccccc2n2c(SCC(=O)NCc3cccs3)nnc12	i	1.3%	i	1e-09	-4%
CCCN1CCN(CCCNC(=O)Cn2cc3c(n2)CCCC3)CC1	.	-2.4%	.	.	3%
CCOc1ccc(N=C(NC#N)SCC(=O)NC2CC2)cc1	i	.	i	1e-09	.
COc1ccccc1NC(=O)CSc1nnc(Cn2cnc3ccccc32)n1C	i	-0.8%	i	1.2e-09	-3%
O=C(CN1CCC(n2nnc3cc(F)ccc32)CC1)N1CCc2ccccc2C1	i	1.0%	i	2.7e-08	17%
COc1ccc(OC)c(C2C(C(N)=O)=C(C)Nc3nc(CCCO)nn32)c1 (stereo not drawn)	.	-0.2%	.	.	-2%
COc1ncc2nc(C)c(=O)n(C[C@H]3CCCO3)c2n1	i	0.5%	i	3.2e-09	1%

The final 2 records of the section before open the next one:
SMILES	A488 autofl	AID923	Resorufin autofl	A647 fluor	TSHR ag
COc1ccc(OC)c(C2C(C(N)=O)=C(C)Nc3nc(CCCO)nn32)c1 (stereo not drawn)	.	-0.2%	.	.	-2%
COc1ncc2nc(C)c(=O)n(C[C@H]3CCCO3)c2n1	i	0.5%	i	3.2e-09	1%
O=S(=O)(NC(=NC1CCCC1)C(F)(F)F)c1ccccc1	i	-0.1%	i	3.5e-09	8%
O=C1OCc2cccc3cccc1c23	i	0.3%	i	3.2e-08	-3%[11.4 µM]
CCOc1cc(C)c(S(=O)(=O)N2CCCC2)cc1C	i	-1.4%	i	7.8e-08	38%
COCCN1Cc2cccc(C(=O)Nc3c(C)cccc3C)c2C1=O	i	-0.3%	i	2.4e-08	5%
CCC12CN3CC(CC)(CN(C1)C3c1c(O)ccc3ccccc13)C2=O (stereo not drawn)	i	.	i	3.5e-08	.
O=S(=O)(NCc1ccco1)N1CCOCC1	i	3.3%	i	1.2e-08	2%
S=c1nc(-c2ccccc2)n(CCCn2ccnc2)c2c1CCCC2	.	2.7%	.	.	-10%
Cc1cc(C(=O)Nc2c(F)cc(F)cc2Br)no1	i	0.3%	i	1e-08	0%
O=C(O)c1ccc2noc(-c3ccccc3)c2c1	i	4.6%	i	1e-09	0%
CCON=C1C(C)(C)C(C)(C)C(C)(C)C1(C)C	i	0.7%[11.5 µM]	i	1e-09	-3%[11.4 µM]
O=C(Oc1ccc(Cl)cc1)N1CCCCC1	.	2.1%	.	.	6%
COc1cccc(C(=O)OCCN(C)C(C)(C)C)c1	i	.	i	3.7e-09	.
NCCC(=O)NCCc1cnc[nH]1	i	-0.8%[25.7 µM]	i	1.6e-09&5.5e-08	?
c1ccc(N2CCN(c3nc4cc5c(cc4s3)OCCO5)CC2)cc1	i	0.7%	i	4.9e-08	16%
O=C(CSc1nc2cc3c(cc2c(=O)n1CCC1=CCCCC1)OCO3)NCc1ccco1	i	-0.3%	i	2.8e-09	?
Cc1ccc(-c2csc3ncnc(-n4nc(C)cc4N)c23)cc1	i	0.4%	i	1.1e-08	?
CCOC(=O)C1CCN(C(=O)c2ccccc2NC(C)=O)CC1	.	-1.8%	.	.	2%
COC(=O)c1c(C)[nH]c(C(C)=O)c1C	i	-2.4%	i	3.1e-08	5%
COc1ccccc1NC(=O)c1ccc(S(=O)(=O)N2CCCC2)cc1	.	-1.5%	.	.	3%
CCc1[nH]nc2c1C(c1ccc(Br)s1)C(C#N)=C(N)O2 (stereo not drawn)	i	.	i	2.4e-09	.
O=C(N1CCOCC1)N1CCN(S(=O)(=O)N2CCOCC2)CC1	i	-1.5%	i	4.3e-08	2%
CCOc1ccc(C2CC(c3ccc(OC)cc3)n3ncnc3N2)cc1 (stereo not drawn)	.	-1.2%	.	.	-4%
COc1cccc(/C(O)=C2/C(=O)C(=O)N(CCN3CCOCC3)C2c2cccnc2)c1 (stereo not drawn)	i	4.9%	i	1e-09	-3%
CCCC(=O)Nc1ccc(NC(=O)c2ccco2)cn1	i	2.0%	i	1e-09	-5%
COCC(=O)N1CCCc2ccccc21	i	-1.4%	i	3.8e-09	-1%
CCN1C(=O)C(NC(C)=O)c2cc(OC)ccc21 (stereo not drawn)	i	2.5%	i	4.8e-09	0%
Cn1c(C(=O)N2CCN(c3nc4ccccc4s3)CC2)cc2sccc21	i	0.8%	i	2.3e-09	.
Cc1cc2ccc(=O)oc2cc1OC[C@@H](O)C(C)(C)O	i	-0.9%	i	8.2e-09	-10%
COCCNC(=O)c1cn(C)c(=O)c2cc(OC)c(OC)cc12	i	1.0%	i	3.1e-08	3%[11.4 µM]
CC1CN(S(=O)(=O)c2cccc(C(=O)OCc3cc(=O)oc4cc(O)ccc34)c2)CC(C)O1 (stereo not drawn)	i	9.3%	i	6.6e-09	23%
CCOC(=O)c1[nH]cnc1C(=O)O	i	-0.3%	i	1e-09	-4%
CCOc1ccc(NC(=O)CN2CCN(S(=O)(=O)c3ccc(Cl)cc3)CC2)cc1	i	0.4%	i	3e-08	.
Cc1nc(N=Nc2cc(S(=O)(=O)O)c3cc([N+](=O)[O-])cc(S(=O)(=O)O)c3c2)c(COP(=O)(O)O)c(C=O)c1O	i	0.2%&-3.3%	i	2.5e-08	2%&4%
CCn1c(=O)n(CCOC)c(=O)c2c3c(sc21)CCCC3	i	-0.4%	i	1.7e-08	9%
Cc1cccc(CC2CC(=O)N(c3ncccn3)C2=O)c1 (stereo not drawn)	i	-0.7%	i	2.8e-08	6%
Cc1nc(C)c(C(=O)C2=C(O)C(=O)N(CCCN(C)C)C2c2ccco2)s1 (stereo not drawn)	i	-1.5%	i	1e-09	2%
O=c1[nH]c2ccccc2cc1-c1noc(-c2cccnc2)n1	i	1.5%	i	3.4e-09	1%
CCc1nnc(NC(=O)c2ccc(-c3cccc(C(F)(F)F)c3)o2)s1	i	0.4%	i	1e-09	-1%
O=C(CCc1nc2ccccc2c(=O)[nH]1)OCc1nnc(-c2ccccc2)o1	i	-0.3%	i	2.4e-08	-4%
CC1(C)N([O-])C(c2ccccc2)=C[N+](=O)C1(C)C	i	9.4%	i	3.2e-08	5%
COc1cc(OC)c(NC(=O)Cn2cccc2)cc1Cl	i	-0.2%	i	1.5e-08	1%[11.4 µM]
COc1cc2c(cc1OC)C1(NCC2)C(=O)Nc2ccccc21 (stereo not drawn)	i	0.2%	i	4.3e-09	-3%
Nn1c(SCC(=O)Nc2ccc(F)c(F)c2)nnc1C1CCCCC1	i	1.5%	i	8e-09	-6%
Cc1sc2ncnc(NCCCO)c2c1C	.	0.2%	.	.	1%
Cc1ccc(-n2nc(C)c3c(C)c(CCC(=O)NCc4ccco4)c(C)nc32)cc1	.	-0.2%	.	.	2%
CSc1ccc(S(=O)(=O)NC2CCCCCC2)cc1	i	1.1%	i	6.5e-08	18%
CCCn1c(-c2ccc(F)cc2)nc2c(N3CCN(CCn4ccnc4)CC3)nc(C)nc21	.	-2.0%	.	.	?
COC(=O)Cn1c(CCS(=O)(=O)c2ccc(C)cc2)nc2ccccc21	i	2.3%	i	1.1e-08	7%
O=C(Cn1cnc2c(nnn2-c2ccccc2)c1=O)NCCc1ccccc1	.	-3.0%	.	.	-4%
O=S(=O)(NCC(c1cccnc1)N1CCN(c2ccc(F)cc2)CC1)c1cc(F)ccc1F (stereo not drawn)	i	1.3%	i	3.7e-09	-5%
Cc1ccc(-n2ncc3c(NCc4ccc5c(c4)OCO5)ncnc32)c(C)c1	i	.	i	3.6e-09	.
Cc1ccc(NC(=O)c2cc(-c3cccc(O)c3)on2)cc1C	.	-4.2%	.	.	1%
CC1CCN(C(=O)C(Cc2ccccc2)NS(=O)(=O)c2ccc3c(c2)oc(=O)n3C)CC1 (stereo not drawn)	.	-1.9%	.	.	-10%
CCN(CC)C(=O)Cn1cnc2ccccc2c1=O	i	0.3%	i	1.9e-09	0%
CC(C)N1CCc2c(sc(NC(=O)c3ccc(S(=O)(=O)N4CCOCC4)cc3)c2C#N)C1	.	3.6%	.	.	-3%
O=C(C1CCN(C2CC(=O)N(Cc3ccccc3)C2=O)CC1)N1CCCCCC1 (stereo not drawn)	i	-0.5%	i	1e-09	4%
O=C(Nc1nc(-c2ccccc2)ns1)c1cccs1	i	1.4%	i	1.8e-08	11%
CC(=O)N(Cc1cc2c(C)cc(C)cc2[nH]c1=O)C1CCCCC1	i	-1.1%	i	2.2e-09	9%
O=C(NC(=O)c1ccc(Cl)cc1)Nc1cc(N2CCCCC2)ncn1	i	0.9%	i	3.1e-08	13%
COC(=O)C(NC(=O)C(C)Oc1ccccc1)C(C)C (stereo not drawn)	i	-0.6%	i	1e-09	11%

The list goes on:
SMILES	A488 autofl	AID923	Resorufin autofl	A647 fluor	TSHR ag
COC(=O)Oc1c(Br)c(=O)oc2ccccc12	i	-2.7%	i	1.9e-08	-16%
Cc1ccc(O)c(NC(=O)c2ccco2)c1	i	-0.9%	i	1e-09	-6%
CN(C)CCCNc1ncnc2nc[nH]c12	i	2.2%[11.5 µM]	i	3e-09	-3%[11.4 µM]
Nc1cccc(NC(=O)c2cccs2)c1	i	0.6%	i	9.1e-09	2%
COc1ccccc1CNC(=O)CN(C)CC(=O)Nc1cccc(F)c1	i	-0.4%	i	3.6e-08	2%
Cc1ccc(-n2nc3c(c2NC(=O)c2ccc4c(c2)OCO4)CSC3)c(C)c1	i	-2.7%	i	4.8e-09	.
CC(C)C(NC(=O)c1ccc(Cl)cc1)C(=O)NC1=NCCS1 (stereo not drawn)	i	0.5%	i	1e-09	3%
O=C(OCC(=O)N1CCN(C(=O)c2ccco2)CC1)c1cc(-c2ccc(F)cc2)nc2ccccc12	i	5.6%	i	1e-09	-3%
CCOC(=O)c1c(C)[nH]c(C)c1C(=O)CSc1nc(N)cc(N)n1	i	0.3%	i	1.2e-08	-3%
Cc1nnc(NCCc2ccccc2)n(N)c1=O	i	-0.3%	i	1e-09	0%

Source: PubChem BioAssay
